High-throughput results: PubChem, National Center for Advancing Translational Sciences (NCATS)
SARS PLP yeast: blocks SARS-CoV papain-like protease in a yeast assay | Potency, µM (doses to about 32.9 µM), for the others: at the highest dose activity, positive = growth rescue | AID 485353 | hit rate 0.19% among 330,000 | S. cerevisiae expressing SARS-CoV PLpro, growth rescue; control for the full effect not named in the record; active means well fitted rising curve with a large enough effect; inconclusive means small, poorly fitted or top-dose-only effect; inactive means no such curve, though single readings can be large or run the other way; further: 0% is about no effect; nearly all actives have a fitted effect of over 55% in size; growth read by luminescence after 48 h
2A StopGo: FMDV 2A StopGo reporter, luciferase signal. human cells with a luciferase reporter of 2A StopGo recoding; control for the full effect not named in the record. Potency, µM (doses to about 57.9 µM), inactives show top-dose signal change, negative = less light. hit rate 1.2% among 410,000; active = well fitted falling curve with a large enough effect; inconclusive = small, poorly fitted or top-dose-only effect; inactive = no such curve, though single readings can be large or run the other way; tested in HEK293T cells; further: on the % scale 0 is the no-effect control and ±100 the full control effect; nearly all actives have a fitted effect of over 45% in size; luciferase light after 4 h
NS1 inh: inhibitors of influenza NS1 protein function; S. cerevisiae slowed by influenza A NS1, growth recovery by OD600; Potency, µM (titrated, usually from 46.1 µM), for the others: at the highest dose activity, positive = more growth; hit rate 0.4% among 270,000; AID 2326; active means well fitted rising curve with a large enough effect; inconclusive means small, poorly fitted or top-dose-only effect; inactive means no such curve, though single readings can be large or run the other way; further: nearly all actives have a fitted effect of over 50% in size
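Growth recovery, yeast-based: influenza A NS1 expressed in S. cerevisiae causes slow growth, and suppressors are detected by OD600. The parent strain without NS1 is used as positive control.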
RE007 growth inh: less growth of the S. pombe RE007 Vpr strain | S. pombe RE007 Vpr strain, BacTiter-Glo ATP luminescence, 24 h; control for the full effect not named in the record | Potency, µM (titrated, usually from 92.2 µM), for the others: top-dose activity change, negative = less growth | hit rate 0.21% among 360,000 | AID 651644; active = well fitted falling curve with a large enough effect; inconclusive = small, poorly fitted or top-dose-only effect; inactive = no such curve, though single readings can be large or run the other way;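 further: on the % scale 0 is the no-effect control and ±100 the full control effect; nearly all actives have a fitted effect of over 50% in size; the assay follows cell death caused by Vpr and the record does not say whether a fall means rescue or toxicity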
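Fission yeast strain RE007, carrying one chromosomally integrated HIV-1 vpr copy, was seeded at OD 0.01 in PMG+AL medium with 23 nL pinned compound. After 24 h at 30 °C and 99% humidity, viability was read by BacTiter-Glo luminescence.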
LASV entry inh: inhibitors of Lassa virus binding or cell entry; Lassa virus pseudotype entry inhibition, cell reporter; control for the full effect not named in the record; Potency, µM (doses to about 37.9 µM), for the others: at the highest dose activity change, negative = inhibition, most hits filed as inhibitors; hit rate 1.2% among 300,000; AID 540256; active means well fitted inhibition curve with a large enough effect; inconclusive means small, poorly fitted or top-dose-only effect, or effect the other way; inactive means flat fitted curve, though single readings scatter; tested in HEK293 cells; further: on the % scale 0 is the no-effect control and ±100 the full control effect; nearly all actives have a fitted effect of over 50% in size; luciferase read-out
Cruzain inh noDet: cruzain (T. cruzi) inhibition without detergent; P25779; purified cruzain, Z-FR-AMC fluorescence, no detergent; Potency, µM, without a hit: max response, negative = inhibition, usual class: inhibitors; hit rate 2.3% among 200,000; AID 1476;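 further: plate controls were enzyme without inhibitor for no effect and buffer without enzyme for full effect; nearly all actives have a fitted effect of over 40% in size; top concentration of the series not given in the record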
Target sequence (P25779 123-467 limits assumed): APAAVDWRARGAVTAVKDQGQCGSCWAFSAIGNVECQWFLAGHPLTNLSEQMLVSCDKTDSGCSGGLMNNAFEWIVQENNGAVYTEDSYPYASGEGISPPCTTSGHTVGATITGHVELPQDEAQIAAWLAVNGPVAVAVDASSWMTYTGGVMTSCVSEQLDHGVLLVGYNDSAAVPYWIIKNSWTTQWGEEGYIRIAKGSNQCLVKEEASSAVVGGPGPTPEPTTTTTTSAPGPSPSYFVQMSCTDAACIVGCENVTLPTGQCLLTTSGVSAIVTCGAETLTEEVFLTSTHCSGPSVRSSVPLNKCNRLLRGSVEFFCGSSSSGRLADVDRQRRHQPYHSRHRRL
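Detergent-free condition (0.00005% Triton X-100) in acetate buffer pH 5.5 with DTT. 1.5 nM enzyme and compound were pre-mixed 15 min, then 2 uM Z-FR-AMC substrate added; reaction progress from fluorescence change between first and third reads (60 s).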
MARV entry inh: inhibitors of Marburg virus binding or cell entry. Marburg virus pseudotyped entry inhibition, cell reporter; control for the full effect not named in the record; about a third of the inactives were read at about 46 µM. hit rate 1.8% among 300,000. Potency, µM (top dose mostly 37.8 µM), without a hit: at the top dose activity change, negative = inhibition, hits mostly inhibitors; active = well fitted inhibition curve with a large enough effect; inconclusive = small, poorly fitted or top-dose-only effect, or effect the other way; inactive = flat fitted curve, though single readings scatter; tested in HEK293 cells; about a fifth of its hits are not listed in these tables; further: on the % scale 0 is the no-effect control and ±100 the full control effect; luciferase read-out
Cruzain inh Det: blocks cruzain activity in presence of Triton detergent. P25779. purified cruzain, Z-FR-AMC fluorescence, 0.01% Triton. Potency, µM, without a hit: max response, negative = inhibition, hits mostly inhibitors. hit rate 0.43% among 200,000. AID 1478;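 further: plate controls were neutral wells for no effect and buffer without enzyme for full effect; nearly all actives have a fitted effect of over 40% in size; top concentration of the series not given in the record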
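Cysteine protease activity tested under reducing, mildly acidic conditions (100 mM sodium acetate pH 5.5, 5 mM DTT) plus 0.01% Triton X-100. Cruzain 1.5 nM; substrate Z-FR-AMC 2 uM; 15 min compound preincubation at room temperature.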
* hit, by the source's call; ? = inconclusive; . = not tested or not shown; [ ] = another dose, or the depositor's remark. Unless noted, the call rests on the fitted dose curve; in most records, active means well fitted curve in the direction sought with a large enough effect; inconclusive means small, poorly fitted or top-dose-only effect, or another doubt; inactive means no such curve, though single readings can be large; an effect the other way counts as inactive or inconclusive. Potency means the concentration at half of the fitted maximal effect.

Below each SMILES: SARS PLP yeast	2A StopGo	NS1 inh	RE007 growth inh	LASV entry inh	Cruzain inh noDet	MARV entry inh	Cruzain inh Det
- Cc1ccc(-c2ccc(C(=O)NCc3ccccc3)o2)c2ccccc12
 : -12.3%	-1.0%	-5.0%	-10.7%	6.51µM*	?	34.0%	-19.3%
- CCC(C(=O)NCc1cccc(C)c1)n1nc(C)c2c(C)n(-c3ccccc3)nc2c1=O (centres undefined)
 : -3.8%	-27.6%	12.6%	21.8%	.	.	.	.
- CCCCC1CCC(C(=O)NC2CCS(=O)(=O)C2)CC1 (centres undefined)
 : 8.9%	4.6%	0.1%	11.7%	?	23.1%	?	0.9%
- COc1cccc(C2CC(c3cccc(NS(C)(=O)=O)c3)=NN2C(=O)c2ccccc2)c1OC (centres undefined)
 : -5.4%	-17.8%	?	-20.7%	14.1µM*	13.7%	?	-4.8%
- O=C(Nc1cccc(F)c1)N1CC=C(n2c(=O)[nH]c3ccccc32)CC1
 : -5.5%	?	-13.4%	4.1%	-14.8%	-7.0%	-13.4%	0.7%
- CC(C)CCN1CCN(Cc2nc3c(s2)CCCC3)CC1CCO (centres undefined)
 : -1.9%	-8.7%	-2.3%	-4.4%	.	.	-4.7%	.
- COc1ccc(OC)c(CNC(=O)C2CCN(S(C)(=O)=O)CC2)c1
 : 0.4%	-0.9%	.	14.6%	25.9%[46.1 µM]	.	?	.
- CN1/C(=C\C(=O)C[n+]2cccc(C(N)=O)c2)C(C)(C)c2ccccc21
 : -6.7%	-17.5%	.	6.8%	2.9%[46.1 µM]	.	-1.7%[46.1 µM]	.
- CN(C)c1nc(N2CCN(c3ccc(F)cc3)CC2)c(C#N)c(=O)o1
 : -5.1%	-2.8%	13.4%	-15.3%	2.5%	-1.6%	?	3.5%
- CCOC(=O)N1CCN(C(=O)CSc2nnc(CNC(=O)c3ccccc3F)o2)CC1
 : 17.5%	-4.3%	-1.1%	-8.5%	6.2%	-0.5%	2.7%	-0.6%
- CN(CCCNC(=O)COc1cc(=O)n(C)c2ccccc12)Cc1ccccc1
 : 2.4%	27.7%	3.6%	-3.9%[3.69 µM]	2.6%	-6.5%	20.3%	2.4%
- COC(=O)[C@H]1C[C@@H]1[C@H](N)c1ccccc1
 : 15.4%	-5.8%	1.9%	-20.2%	.	-8.3%	.	-1.4%
- O=C(CSc1nc(-c2cccc(Cl)c2)nc2cc(=O)[nH]n12)Nc1ccccc1
 : .	-22.1%	.	.	0.9%[46.1 µM]	-7.2%	.	1.5%
- Cc1nnc(NC(=O)CSc2nnnn2Cc2ccccc2)s1
 : 3.8%	-9.4%	-1.4%	-7.0%	-5.2%	-4.6%	16.0%[46.1 µM]	-3.3%
- CCOC(=O)C1=C(CN2CCc3ccccc32)NC(=O)NC1c1ccc(Cl)cc1 (centres undefined)
 : 7.3%	?	28.7%	8.1%	-16.9%	?	16.4µM*	-3.8%
- CCOC(=O)Cc1csc(NC(=O)c2ccc(Cl)s2)n1
 : -4.3%	6.2%	-41.9%	-29.8%	.	.	.	.
- C=CCNC(=O)NC(=O)Cn1c(=O)c2c(ncn2CC)n(Cc2ccccc2)c1=O
 : 1.1%	-9.2%	5.2%	-13.8%	-8.0%[46.1 µM]	.	-4.8%[46.1 µM]	.
- CCOC(=O)C1CCN(S(=O)(=O)c2ccc3c4c(cccc24)C(=O)N3CC)CC1
 : -0.1%	-28.9%	.	1.8%	-1.5%[46.1 µM]	.	-2.1%[46.1 µM]	.
- COc1ccc(OC)c(NC(=O)NC2CCCc3ccccc32)c1 (centres undefined)
 : -4.0%	-20.9%	4.6%	6.3%	-13.4%[46.1 µM]	.	?	.
- CCOc1ccc(/C=N/NC(=O)c2cc3c(OC)cc(OC)c(OC)c3[nH]2)cc1
 : -3.0%	-16.6%	6.9%	3.0%	.	.	.	.

Record cards, as listed above. Order of screens: SARS PLP yeast, 2A StopGo, NS1 inh, RE007 growth inh, LASV entry inh, Cruzain inh noDet, MARV entry inh, Cruzain inh Det
`CCOC(=O)C1CCN(S(=O)(=O)c2ccc3c4c(cccc24)C(=O)N3CC)CC1` is listed as -0.1%, -28.9%, ., 1.8%, -1.5%[46.1 µM], ., -2.1%[46.1 µM], .
`COC(=O)[C@H]1C[C@@H]1[C@H](N)c1ccccc1` is listed as 15.4%, -5.8%, 1.9%, -20.2%, ., -8.3%, ., -1.4%
`CCOC(=O)N1CCN(C(=O)CSc2nnc(CNC(=O)c3ccccc3F)o2)CC1` is listed as 17.5%, -4.3%, -1.1%, -8.5%, 6.2%, -0.5%, 2.7%, -0.6%

The list continues:
Below each SMILES: SARS PLP yeast	2A StopGo	NS1 inh	RE007 growth inh	LASV entry inh	Cruzain inh noDet	MARV entry inh	Cruzain inh Det
- O=S(=O)(Cc1ccccc1)NC1c2ccccc2Oc2ccccc21
 : .	-9.9%	.	3.5%	?	.	?	.
- O=C(O)c1cnn(-c2nc(-c3cccc([N+](=O)[O-])c3)cs2)c1C(F)(F)F
 : -0.3%	3.5%	-0.6%	11.9%	.	.	.	.
- COC(=O)c1ccccc1NC(=O)CSc1ccc(C)cc1
 : 3.6%	-10.8%	-10.8%	-2.7%	11.0%	-2.7%	-3.7%	-6.2%
- CCCc1[nH]n(-c2ccc(F)cc2)c(=O)c1C=NCC1CCCO1 (centres undefined)
 : 0.8%	-8.2%	2.1%	17.2%	.	.	.	.
- CCN(CC)c1ccc(NC(=O)c2cnn(-c3ccccc3)c2-n2cccc2)c(C)c1
 : .	?	.	.	5.1%[46.1 µM]	9.8%	?	1.4%
- CN1CCOCCOc2ccccc2OCCOCC1
 : .	0.0%	.	13.2%	-4.9%	.	-0.7%	.
- CCCn1c2ccc(C)cc2c2n[nH]c(=S)nc21
 : -0.7%	4.7%	3.9%	29.9%	.	.	.	.
- COc1ccc(-n2cnc3cc(NS(=O)(=O)c4ccc(C)cc4)ccc32)cc1
 : -4.6%	.	6.2%	.	.	6.5%	7.2%	3.5%
- CCOc1ccc(S(=O)(=O)Nc2ccc(C(=O)N3CCC3)cc2)cc1
 : 2.9%	9.4%	.	-25.9%	2.4%	.	-1.2%	.
- C/C(=N\NC(=O)c1ccncc1)c1cccnc1
 : -6.3%	15.8%	-11.7%	-2.4%	0.0%[46.1 µM]	.	-30.3%[46.1 µM]	.
- COC(=O)CN(c1cc([N+](=O)[O-])ccc1OC)S(C)(=O)=O
 : -1.6%	-15.3%	12.5%	-2.3%	-2.3%	.	-0.6%[46.1 µM]	.
- CCOc1ccc(-n2cc(-c3ccccc3)c3c(NCCc4ccccc4)ncnc32)cc1
 : .	-10.1%	.	.	-21.4%[46.1 µM]	-2.9%	.	0.8%
- S=c1[nH]nc(COc2cccc3ccccc23)n1Cc1ccccc1
 : -0.9%	-26.7%	6.5%	-2.5%	?	.	?	.
- CSc1ccc(/C=C(\NC(=O)c2ccccc2)C(=O)NN)cc1
 : 0.7%	5.0%	?	-19.2%	?	.	5.8%[14.2 µM]	.
- Cc1cc(C)c(NC(=O)CSc2nc3nc(C)cc(C)n3n2)c(C)c1
 : .	-15.6%	.	.	-11.7%[46.1 µM]	-4.6%	-18.5%[46.1 µM]	-0.9%
- CCc1nnc(NC(=O)CN2CCN(c3ccccc3OC)CC2)s1
 : 0.1%	.	-3.1%	-2.0%	7.5%	1.6%	-5.0%	4.5%
- Cc1n[nH]c(C)c1S(=O)(=O)N(CC(=O)NC1CCCC1)c1ccc(C(C)C)cc1
 : 0.6%	?	-13.7%	-4.3%	.	?	.	-4.6%
- Cc1cc(C)cc(NC(=O)N2CCNC(=O)C2CC(=O)Nc2cc(Cl)ccc2Cl)c1 (centres undefined)
 : 5.7%	-23.1%	5.5%	-10.3%	11.2%	.	16.4%	.
- CCN(Cc1ccc(NC(C)=O)cc1)CC1CCCN(CCc2cccc(F)c2)C1 (centres undefined)
 : 29.8%	-5.9%	3.4%	2.3%	.	.	.	.
- Cc1cc(C)n2nc(SCC(=O)c3cccs3)nc2n1
 : -1.1%	24.0%	-3.7%	2.8%	17.3%[46.1 µM]	.	1.9%[46.1 µM]	.
- CCCCNC(=O)NS(=O)(=O)c1ccc(NC(=O)CCC(=O)c2cccs2)cc1
 : 0.4%	-29.3%	8.4%	0.4%	-35.8%[46.1 µM]	.	16.6%[46.1 µM]	.
- COc1cccc(CN(C)CC(=O)NCc2ccccc2Cl)c1
 : -21.6%	-21.5%	-9.5%	-9.2%	-4.3%	6.3%	?	-0.4%
- Cc1cccc(N(CC(=O)NCCc2ccccc2)S(=O)(=O)c2ccccc2)c1C
 : .	-12.8%	.	.	?	8.0%	-14.8%[46.1 µM]	-6.6%
- COc1ccc(NC(=O)CN(C)C(=O)c2cc3c(s2)CCCCC3)cc1
 : -7.0%	3.3%	-5.2%	3.8%	2.7%	.	-5.8%	.
- O=C(NCC(=O)N1CCN(S(=O)(=O)c2ccccc2)CC1)c1ccc(Br)o1
 : -3.6%	-13.4%	.	-6.5%	10.1%	.	?	.
- O=C(NC1CCN(S(=O)(=O)c2ccccc2)CC1)C1CCCCC1
 : 2.7%	.	1.7%	6.1%	2.0%	-14.4%	10.5%	-2.1%
- COc1cc(NC(=S)N2CCC(C(N)=O)CC2)cc(OC)c1
 : 21.6%	-25.5%	-1.3%	-9.1%	0.2%	11.5%	19.3%	3.1%
- Cc1ccc2cc(C)c(SCC(=O)Nc3ccc(S(=O)(=O)N4CCCC4)cc3)nc2c1
 : 0.2%	-9.5%	?	0.0%	-27.4%[46.1 µM]	.	?	.
- C#CC1(NC(=O)NC(=O)c2c(F)cccc2F)CCCCC1
 : 0.0%	-2.8%	6.0%	-11.6%	.	.	.	.
- CC(C)(C)CC(=O)Nc1cc(S(=O)(=O)N2CCCCCC2)ccc1Cl
 : -4.2%	-20.1%	-6.8%	11.7%	-11.9%	-0.9%	?	-2.7%
- Nc1ccc(Cl)cc1C(=O)c1ccccc1
 : 0.1%	15.1%	.	15.6%	0.9%[46.1 µM]	.	16.8%[46.1 µM]	.
- Cc1cccc(C(=O)c2ccccc2C(=O)O)c1O
 : 0.0%	.	-0.8%	-16.0%	8.5%	-4.4%	14.1%	0.5%
